Screening results deposited in PubChem BioAssay by National Center for Advancing Translational Sciences (NCATS).
VACV mCherry inh = inhibitors of vaccinia virus infection (mCherry reporter signal); Vaccinia virus mCherry reporter infection, fluorescence; about a quarter of the inactives have no number; Potency, µM (top dose mostly 36.5 µM), for inactives: at the highest dose activity change, negative = inhibition, most hits filed as inhibitors; hit rate 0.63% among 310,000; active = well fitted inhibition curve with a large enough effect; inconclusive = small, poorly fitted or top-dose-only effect; inactive = no such curve, though single readings can be large or run the other way; tested in A549 cells; further: nearly all actives have a fitted effect of over 35% in size; inactives centre near -10
Vaccinia Venus = inhibitors of vaccinia virus (Venus reporter); Potency, µM (titrated, usually from 36.5 µM), for inactives: top-dose activity change, negative = inhibition, most hits filed as inhibitors; Vaccinia virus Venus reporter expression, fluorescence; hit rate 0.46% among 330,000; AID 720580; active means well fitted inhibition curve with a large enough effect; inconclusive means small, poorly fitted or top-dose-only effect; inactive means no such curve, though single readings can be large or run the other way; tested in A549 cells; further: nearly all actives have a fitted effect of over 30% in size; inactives centre near -10
* hit, by the source's call; i = inactive; u = inconclusive; x = not tested or not shown; & = joins results of further samples; [ ] = dose if it differs, or a comment. On the % scale 0 is the no-effect control and ±100 the full control effect; potency means the concentration at half of the fitted maximal effect.

| Molecule | Vaccinia Venus | VACV mCherry inh |
| --- | --- | --- |
| O=C(NCCc1c[nH]c2ccccc12)c1ccc2nc[nH]c2c1 | -3% | -25% |
| CCCCN(C(=O)c1sc2nc3n(c(=O)c2c1C)CCC3)c1c(N)n(CC(C)C)c(=O)[nH]c1=O | -16% | i |
| Cc1ccc(-c2ccc(S(=O)(=O)N3CCCC3)cc2)cc1 | 1% | i |
| C/C(=N/NC(=O)c1nnn(-c2nonc2N)c1CSc1ccc(Cl)cc1)c1ccncc1 | -25% | -2% |
| Cc1cccc(NC(=S)N/N=C/C(C)c2ccccc2)c1C (stereo not drawn) | -18% | 2% |
| COc1cc(CNC(=O)c2ccc3nc(CCc4ccccc4)oc3c2)cc(OC)c1OC | -20% | -18% |
| Cc1nn(-c2ccccc2)c(Cl)c1C(=O)OCC(=O)N(C)c1c(N)n(Cc2ccccc2)c(=O)[nH]c1=O | -20% | i |
| COc1cccc(CN2CCC(c3nnc(SCC4CCCO4)n3C)CC2)c1O (stereo not drawn) | -8% | -12% |
| OC[C@@H]1CN(Cc2cccs2)C[C@H](n2cnc3c(Nc4ccccc4)ncnc32)O1 | -2% | 2% |
| CCCCCCn1cc(CN2CC(N3CCN(C4CCN(C)CC4)CC3)CS2(=O)=O)nn1 (stereo not drawn) | 0% | 6% |
| CCNC(=O)COC(=O)c1cc(C)nc2ccccc12 | -9% | -4% |
| CCOc1ccc(N(CC(=O)NC2CCCC2)S(=O)(=O)c2ccccc2)cc1 | -8% | -15% |
| CC(=O)Nc1cccc(-c2cc(NC=O)c3ncc(-c4ccc(C(C)=O)cc4)n3c2)c1 | u | u |
| CCn1c(CNC(=O)c2ccco2)nnc1SCC(=O)Nc1ccccc1Cl | -2% | -9% |
| CCN(C(=O)CN(C)Cc1c(F)cccc1Cl)c1c(N)n(Cc2ccccc2)c(=O)[nH]c1=O | -6% | -13% |
| CCCCCc1nc2ccccc2c(=O)n1-c1ccc(C)cc1 | u | u |
| Cn1ncc2c(Nc3cc(C(F)(F)F)ccc3Cl)ncnc21 | -9% | -26% |
| Cc1oc(-c2ccc(F)cc2)cc1-c1nn2c(-c3ccoc3C)nnc2s1 | u | -14% |
| OC[C@@H]1CN(Cc2ccc(Cl)cc2)C[C@H](n2cnc3c(N4CCOCC4)ncnc32)O1 | 9% | 1% |
| CCOC(=O)c1sc2nccc(OC)c2c1N=CN(C)C | 1% | -4% |
| Cc1ccc(NC(=O)C2CCC(=O)N2C(=O)OCc2ccccc2)cc1 (stereo not drawn) | 8% | -2% |
| CSc1ccccc1NC(=O)C1=CC(c2ccc3c(c2)OCO3)=NS(=O)(=O)N1C | -8% | -4% |
| O=C(Nc1ccc(N2CCN(C(=O)c3ccccc3)CC2)c(Cl)c1)c1ncn[nH]1 | -7% | i |
| COc1ccccc1-c1ccc(SCC(=O)NCCc2ccccc2)nn1 | -13% | -10% |
| CCOC(=O)CC1OC(=O)c2cc3c(cc21)C(=O)OC3CC(=O)OCC (stereo not drawn) | -11% | -13% |
| COCCNC(=O)Nc1cc(C(=O)NCc2ccc(C(C)C)cc2)ccc1N1CCCC1 | -21% | i |
| O=C(COC(=O)/C=C/c1ccc(OC(F)F)cc1)NC1CCCC1 | -14% | i |
| COCC(=O)Nc1ccc(OCc2ccccc2)cc1 | -3% | i |
| CC(C)C(=O)NCC1CCC2(CCN(Cc3ccc(-c4cccc(Cl)c4)o3)CC2)O1 (stereo not drawn) | -5% | i |
| COc1ccc(Cl)cc1NC(=O)CN(C)C(=O)COc1ccccc1F | -10% | i |

In the list so far, 3 have a thiophene ring, fused or not:
| Molecule | Vaccinia Venus | VACV mCherry inh |
| --- | --- | --- |
| CCCCN(C(=O)c1sc2nc3n(c(=O)c2c1C)CCC3)c1c(N)n(CC(C)C)c(=O)[nH]c1=O | -16% | i |
| OC[C@@H]1CN(Cc2cccs2)C[C@H](n2cnc3c(Nc4ccccc4)ncnc32)O1 | -2% | 2% |
| CCOC(=O)c1sc2nccc(OC)c2c1N=CN(C)C | 1% | -4% |

Back to the main list, starting three compounds before the break.
| Molecule | Vaccinia Venus | VACV mCherry inh |
| --- | --- | --- |
| COCC(=O)Nc1ccc(OCc2ccccc2)cc1 | -3% | i |
| CC(C)C(=O)NCC1CCC2(CCN(Cc3ccc(-c4cccc(Cl)c4)o3)CC2)O1 (stereo not drawn) | -5% | i |
| COc1ccc(Cl)cc1NC(=O)CN(C)C(=O)COc1ccccc1F | -10% | i |
| N#C/C(=N\Nc1cccc(F)c1)C(=N)N1CCCCCC1 | -9% | i |
| Cc1cccc(-n2nnc(C(=O)NCc3ccccn3)c2N)c1 | -8% | -8% |
| O=C(NCC1CCCO1)c1nc2c(nnn2Cc2ccccc2Cl)c(=O)[nH]1 (stereo not drawn) | -4% | i |
| CCCn1c(SCC(=O)NC(C)c2ccccc2)n[nH]c1=O (stereo not drawn) | 7% | -7% |
| COc1ccc(-c2cc3nccc(-c4cc(Cl)c(C)cc4O)n3n2)cc1 | -12% | -4% |
| Cc1ccc(NC(=O)C2CCCC2)c(Br)c1 | -20% | -24% |
| Cc1nn(-c2cc(C(F)(F)F)ccc2Cl)c2nc(C(Cl)(Cl)Cl)[nH]c(=O)c12 | -21% | -5% |
| CCOc1cc(N2CCOCC2)c(OCC)cc1NC(=O)Cc1ccccc1OC | -27% | x |
| C=CCN(CC=C)S(=O)(=O)c1ccc(NC(=S)NC(=O)/C=C/c2ccc(C)cc2)cc1 | -17% | x |
| OC1(c2ccccc2)CCNC2CCCCC21 (stereo not drawn) | -9% | i |
| CCOCCCNC(=O)CN1CCN(Cc2ccc(Cl)cc2)C1=O | -5% | -15% |
| CCC(=O)NC(=S)Nc1ccc(NC(=O)c2ccc([N+](=O)[O-])cc2Cl)cc1 | -2% | -14% |
| COc1ccc(C2C(=O)c3ccccc3C2=O)cc1OC | -5% | i |
| CC1CCCCN1CCCNC(=O)c1ccc2c(c1)NC(=O)CN2C (stereo not drawn) | -2% | u |
| O=C(NCc1ccccc1Cl)c1ccc(CS(=O)(=O)c2ccc(Br)cc2)o1 | -6% | -14% |
| O=C(O)c1cccc(S(=O)(=O)N2CCCC(c3nc4c(nnn4Cc4ccccc4Cl)c(=O)[nH]3)C2)c1 (stereo not drawn) | 4% | i |
| Cc1ccccc1NC(=O)CSc1nnc(-c2ccco2)n1N | -10% | i |
| CCCCn1c(-c2cccs2)nc2oc3ccccc3c(=O)c2c1=O | -6% | -8% |
| Cc1nn(Cc2cccc(C(=O)Nc3ccn(Cc4ccccc4)n3)c2)c(C)c1[N+](=O)[O-] | -9% | -7% |
| O=C(COc1ccc(Cl)cc1)Nc1nc(-c2cccs2)cs1 | -21% | x |
| CCOC(=O)c1c(/N=C/c2cccc([N+](=O)[O-])c2O)sc2c1CCC2 | 9% | u |
| CCOP(=O)(OCC)c1ccc(OP(=O)(c2cccc([N+](=O)[O-])c2)c2cccc([N+](=O)[O-])c2)cc1 | -15% | i |
| COc1cc(C2Nc3cccc4cccc(c34)N2)ccc1O | -17% | i |
| O=C(Nc1ccc(S(=O)(=O)Nc2ncccn2)cc1)c1ccc(S(=O)(=O)N2CCCC2)cc1 | -3% | -10% |
| CCOc1ccc(C(=O)NC(C(=O)NCCc2ccc(S(N)(=O)=O)cc2)C(C)C)cc1 (stereo not drawn) | -10% | -10% |
| C=Cc1ccc(Cn2c(=O)n(-c3ccc(C)cc3)c(=O)c3c2c2cc(OC)ccc2n3C)cc1 | -18% | -22% |
| COc1ccc(-n2cccc2/C=C2\C(=N)N3N=C(c4ccco4)SC3=NC2=O)cc1 | 7% | i |
| N#CCCN(C(=O)c1cc2c(s1)-c1ccccc1S(=O)(=O)C2)c1ccccc1 | 0%[7.34 µM] | i[7.34 µM] |
| O=C1CCSC2(C(=O)N(Cc3ccc(F)cc3)c3ccccc32)N1c1ccccc1 (stereo not drawn) | -16% | -22% |
| COc1ccccc1NC(=O)c1cc(Cl)nnc1Cl | u | u |

The list continues.
| Molecule | Vaccinia Venus | VACV mCherry inh |
| --- | --- | --- |
| COc1ccc2cc(C(c3nnnn3C3CCCCC3)N3CCCCCC3)c3nnnn3c2c1 (stereo not drawn) | -7% | -13% |
| Nc1ccc(C(=O)n2c3ccccc3c3ccccc32)cc1 | u | x |
| CS(=O)(=O)c1ccc(C(=O)OCC(=O)N2CCCc3ccccc32)cc1 | -6% | -17% |
| O=C(CSc1ccc2nnc(-c3cccc(F)c3)n2n1)N1CCCc2ccccc21 | -2% | -4% |
| CCOc1ccc(OCC)c(NS(=O)(=O)c2ccc3[nH]c(=O)ccc3c2)c1 | -19% | -23% |
| O=C(COc1ccc(-n2cnnn2)cc1)Nc1ccc(Br)cc1F | -1% | 6% |
| CC1C(=O)N(Cc2cn(Cc3ccco3)nn2)CCS(=O)(=O)N1Cc1ccc(-c2ccc(F)nc2)cc1 (stereo not drawn) | -14% | -14% |
| Cc1cc(S(=O)(=O)N2CCN(c3ncccn3)CC2)ccc1-n1cnnn1 | -5% | -11% |
| CCCCNC(=O)C1(C)CCCCN1C(=O)c1ccc(F)cc1Cl (stereo not drawn) | 4% | 7% |
| CCCCN(CC)CCCNC(=O)c1cc2c(=O)[nH]c3ccccc3c2s1 | -10%&-17% | -9% |
| O=S(=O)(/N=C(/Nc1ccc(F)cc1F)c1ccccc1)c1ccccc1 | -15% | -20% |
| CCCCCCCCCCCCCCCC(=O)OC[C@H](COP(=O)([O-])OCC[N+](C)(C)C)OC(C)=O | -2%[3.33 µM] | -10%[3.33 µM] |
| O=C1C=C(NS(=O)(=O)c2ccccc2)C(=O)c2ccccc21 | 2% | u |
| C/C(=N/NC(=O)CNS(=O)(=O)c1ccccc1)c1ccc(Br)cc1 | -18% | i |
| COc1ccccc1CNC(=O)c1ccc(NS(C)(=O)=O)cc1 | -1% | i |
| CCCCC1=CC2=C(c3ccco3)C(=O)C(C)(OC(=O)c3ccc(OC)cc3)C(=O)C2=CN1CC(C)C (stereo not drawn) | -15% | -28% |
| COc1ccc(N2C(=O)CCC(C(=O)N3CCN(c4ccccn4)CC3)C2c2ccc(F)cc2)cc1 (stereo not drawn) | -7% | -11% |
| CCOC(=O)c1cc(C(=O)NN)c(=O)[nH]c1C | -2% | -18% |
| CCCCCCOC(=O)c1ccc(NC(=O)c2cc(OC)c(OC)c(OC)c2Br)cc1 | -19% | x |
| O=C(CCCC(=O)N(c1ccc2c(c1)OCCO2)C(C(=O)NC1CCCCC1)c1ccc(Cl)cc1)Nc1ccccn1 (stereo not drawn) | -3% | -5% |
| O=C(NC1CCCC1)c1ccc2c(=O)n(Cc3ccccc3)c(SCc3ccccc3)nc2c1 | -6% | i |
| COc1ccc(NC(=O)CCNC(=O)C2CCN(S(=O)(=O)c3ccccc3)CC2)cc1OC | -13% | -18% |
| CCc1nc2ccc(C(=O)N(CC)CCN(C)C)cn2c1N(C)Cc1cccs1 | -19% | -15% |
| Oc1ccc(Cl)cc1CNC1CCCCC1 | -7% | -17% |
| O=C(Nc1nnc(SCc2ccc(F)cc2)s1)c1ccco1 | -17% | x |
| CSc1nc(N)n2nc(C(C)(C)C)cc2n1 | -9% | -4% |
| COC(=O)C1=C(c2cccc(OC)c2OC)C[C@@H]2CC[C@H]1N2C(=O)NCCO | -16% | -11% |
| Cc1nc2ccccc2c(=O)n1NC(=O)c1cccnc1Cl | -5% | 1% |
| COc1ccc(CCNC(=O)c2cc(Sc3cccc(Cl)c3)nc3ccccc23)cc1OC | -25% | -30% |
| COc1cc(F)ccc1-c1cc(C(=O)NCc2cccc(Cl)c2)[nH]n1 | -13% | i |

Other compounds.
| Molecule | Vaccinia Venus | VACV mCherry inh |
| --- | --- | --- |
| CC(C)OCCCN1C(=O)c2[nH]nc(-c3ccccc3O)c2C1c1ccc(OCc2ccccc2)cc1 (stereo not drawn) | u | u |
| Cc1nc2ccccc2c(=O)n1-c1cc(F)ccc1F | -3% | i |
| CCC(=O)Nc1cccc(C2=NOC3(C2)C[C@@H](C(N)=O)N(C(=O)c2cc([N+](=O)[O-])cc([N+](=O)[O-])c2C)C3)c1 (stereo partly drawn) | 3% | i |
| CCOC(=O)C1CCN(C(=O)CCS(=O)(=O)c2ccc3c(c2)CCN3C(=O)CC)CC1 | -1% | -8% |
| O=C(/C=C/c1ccccc1)N/C(=C/c1ccccc1)C(=O)N1CCOCC1 | -3% | -6% |
| COc1ccc(NC(=O)CSc2nnc(CNC(=O)c3cccs3)o2)c(OC)c1 | -9% | -15% |
| CCN(CC)C(=O)COC(=O)c1cc(-c2ccco2)nc2ccccc12 | -1% | -6% |
| C=CCn1c(SCC(=O)Nc2sccc2C(N)=O)nc2ccc(Cl)cc2c1=O | u | x |
| Cc1cccc(-c2noc(-c3cc4ccccc4oc3=O)n2)c1 | -1% | -3% |
| COc1ccc(CNC(=O)c2ccc(N3CCOCC3)c([N+](=O)[O-])c2)cc1 | -7% | -10% |
| Cc1ccc(C(=O)N2CCC3(CC2)Oc2ccc(Cl)cc2C(=O)C32CC(c3cccnc3)=NO2)s1 (stereo not drawn) | u | -3% |
| CCCCOc1ccc(S(=O)(=O)NNC(=O)c2cc3ccccc3o2)cc1 | -18% | u |
| COc1ccc(S(=O)(=O)NCC(c2ccc(N(C)C)cc2)N2CCOCC2)cc1 (stereo not drawn) | -2% | -5% |
| O=C(Cn1nc(Cc2cccnc2)c2ccccc2c1=O)Nc1ccc(F)c(Cl)c1 | -19% | u |
| Cc1cc(C)cc(N(CC(=O)NC2CCCC2)C(=O)CCC(=O)Nc2nc(C)cs2)c1 | -6% | -8% |
| COc1ccccc1NS(=O)(=O)c1cccc(C(=O)NCc2ccccn2)c1 | -13% | i |
| c1csc(-c2cn3c(n2)SCC3)c1 | -9% | x |
